HNF4A DNA FP – change in binding of human HNF4 alpha to DNA | P41235 | HNF4a-FITC DNA binding, fluorescence polarization, 1 h | activity change, % at 10 µM | 360,000 compounds, 0.3% hits | AID 1224865; in the data active = activity change above about 30%, passing the limit was not always enough;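 also: controls were the assay level and a saturating level of protein; the project sought stronger binding though the title names inhibitors; some compounds called inactive have numbers as strong as hits; positive values seem to mean higher polarization but the record does not say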
FGF22 binding – FGF22 (human) thermal shift binding. calls only at 9.99 µM. Q9HCT0. 340,000 compounds, 1.5% hits. recombinant FGF22 thermal shift, SYPRO orange fluorescence; percent of sucrose octasulfate shift, DMSO zero;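 active = melting point raised past a set limit in the mean and every replicate; inconclusive = no clear call; three in four hits are not shown here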
Target sequence (Q9HCT0 whole entry, looked up): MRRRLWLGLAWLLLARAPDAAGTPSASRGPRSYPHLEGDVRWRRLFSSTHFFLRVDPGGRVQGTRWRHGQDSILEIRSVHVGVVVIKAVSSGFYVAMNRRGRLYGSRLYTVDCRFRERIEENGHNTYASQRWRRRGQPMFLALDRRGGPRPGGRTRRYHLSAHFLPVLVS
MLL AF4-AF9 inh – blocks AF4 peptide binding to human AF9; 350,000 compounds, 0.47% hits; AlphaScreen, biotin-AF4 peptide binding to FLAG-AF9; inhibition, % at 10 µM;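 active = every replicate reaching a set inhibition limit, whatever the replicate mean, cut at about 25% in these data; inconclusive = mean inhibition reaches that limit but some replicates miss it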;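 also: 0% = plate neutral control median and 100% = total signal loss; the record names both 10 and 1 µM as test concentration; the first replicate is given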
Target sequence (P42568 whole entry, looked up): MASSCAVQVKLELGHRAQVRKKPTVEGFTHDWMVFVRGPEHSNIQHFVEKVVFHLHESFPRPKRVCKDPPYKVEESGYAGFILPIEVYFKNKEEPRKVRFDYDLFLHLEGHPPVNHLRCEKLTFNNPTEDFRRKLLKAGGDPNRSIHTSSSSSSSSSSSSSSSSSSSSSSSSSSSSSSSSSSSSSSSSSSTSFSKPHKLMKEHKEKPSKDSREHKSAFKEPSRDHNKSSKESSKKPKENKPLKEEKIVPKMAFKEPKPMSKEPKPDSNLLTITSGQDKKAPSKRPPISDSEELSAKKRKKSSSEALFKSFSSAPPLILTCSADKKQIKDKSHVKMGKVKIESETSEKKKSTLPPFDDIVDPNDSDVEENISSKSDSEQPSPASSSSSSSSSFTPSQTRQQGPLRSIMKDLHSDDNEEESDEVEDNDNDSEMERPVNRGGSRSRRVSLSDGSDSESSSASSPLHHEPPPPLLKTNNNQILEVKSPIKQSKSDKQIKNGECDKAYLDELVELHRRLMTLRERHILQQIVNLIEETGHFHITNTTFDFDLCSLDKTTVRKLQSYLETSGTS
UCH37 inh – blocks the human deubiquitinase UCH37 | 330,000 compounds, 0.33% hits | inhibition, % (no concentration beside the values) | Q9Y5K5 | AID 588478 | purified proteasome/UCH37, Ub-AMC cleavage fluorescence;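 active = mean of two replicates above 20%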;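 also: 0% = compound-free wells with enzyme and 100% = wells lacking proteasome; stock transfer was 100 nL into about 20 µL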
Target sequence (Q9Y5K5 whole entry, looked up): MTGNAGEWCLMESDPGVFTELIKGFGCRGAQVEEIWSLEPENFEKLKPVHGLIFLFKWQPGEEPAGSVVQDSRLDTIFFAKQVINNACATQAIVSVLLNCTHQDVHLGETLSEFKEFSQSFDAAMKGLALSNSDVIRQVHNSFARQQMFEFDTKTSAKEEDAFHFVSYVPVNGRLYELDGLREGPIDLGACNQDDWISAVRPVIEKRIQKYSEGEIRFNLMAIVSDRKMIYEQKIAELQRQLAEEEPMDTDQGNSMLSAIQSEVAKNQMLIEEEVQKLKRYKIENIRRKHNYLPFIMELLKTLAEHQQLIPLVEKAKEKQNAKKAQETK
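Material: Human UCH37 enzyme supplied as purified proteasome complex | Schedule: 30 min compound-proteasome preincubation then 25 min substrate reaction, room temperature | Detection: AMC fluorescence from Ub-AMC cleavage, excitation 355 nm, emission 460 nm | Benchmarks: Wells without proteasome as full block, compound-free enzyme plus substrate as uninhibited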
Ecoli growth – blocks Escherichia coli growth. OD600, 23 h; active compounds read low. OD600 absorbance (test concentration not listed). 330,000 compounds, 0.21% hits;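 active = OD600 absorbance below the run mean of sample wells minus 3.6 SD, in any replicate, cut at about 0.56 in these data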;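 also: stock transfer was 300 nL into about 60 µL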
Vif A3G – HIV-1 Vif–A3G interaction blockers – biochemical, TR-FRET, GST-Vif 1-94, biotin-A3G peptide, dose response retest, primary screen (AID 1117319). inhibition, %; hits with a dose series show IC50 in µM. TR-FRET GST-Vif / biotin-A3G peptide binding; higher % means a stronger effect; test concentration not given here; strong numbers were not always called active. 260,000 compounds, 0.57% hits;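 active = above the screen mean plus three standard deviations and confirmed in dose response; inconclusive = results disagree or hit not tested in dose response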;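 also: Vif residues 1-94 fused to GST binding biotinylated APOBEC3G peptide 110-148; 0% = full assay without inhibitor and 100% = GST in place of GST-Vif; retest series ran down from 100 µM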
RanGTP-Imp inh – disruptors of Ran-importin-beta complex formation – biochemical, FRET, CFP-Ran, YFP-importin-beta, homogeneous, primary screen | inhibition, % (concentration not given with the values) | cell-free CFP-Ran/YFP-importin-beta FRET ratio | AID 2216 | 300,000 compounds, 1.1% hits;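 active = most replicates above 15%; inconclusive = exactly half above 15%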;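 also: 0% = DMSO wells and 100% = Ran loaded with GDP instead of GTP; wells of about 40 µL received 100 nL stock; the first replicate is given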
An asterisk follows results filed as active; i = inactive; u = inconclusive; x = no result given; & = joins results of further samples; ! = not active in a repeat. The list is partial (hit frequency here may not be typical).

SMILES | HNF4A DNA FP | FGF22 binding | MLL AF4-AF9 inh | UCH37 inh | Ecoli growth | Vif A3G | RanGTP-Imp inh
CC1CCCCN1C(=O)c1ccccc1OC1CCN(S(C)(=O)=O)CC1 (stereo unspecified) | -1.2 | i | -7.9 | 1.3 | 0.654 | x | 2.9
CN(CCN(C)C(C)(C)C)C(=O)C(c1ccccc1)c1ccccc1 | 0.9 | i | 0.2 | 5.5 | 0.708 | 14.4% | 1.8
CNC(=O)c1ccc(-c2ccccc2)s1 | 2.2 | x | x | -20.3 | 0.678 | -1.5% | -1.7
CCN(CC)CCNCc1cc(Cl)c(OCC(=O)Nc2ccccc2)c(OC)c1 | -2.5 | i | 6.9 | 4.4 | 0.678 | 0.9% | 2.5
Cc1ccc(C)c(N2CCN(C(=O)C3CCN(c4nnc(N5CCCC5=O)s4)CC3)CC2)c1 | 0.0 | x | x | 0.4 | 0.771 | 2.6% | u
COC(=O)CCC(=O)Nc1sc(Cc2ccccc2)c(C)c1C(N)=O | -6.8 | i | 1.4 | 6.1 | 0.66 | x | 8.4
Nc1ccc2oc3ccc(N)cc3c(=O)c2c1 | 2.1 | x | x | 6.9 | 0.64 | u | u
O=c1oc(CCO)cc2ccc(Br)cc12 | -2.0 | i | 0.0 | 0.3 | 0.69 | -8.4% | x
COc1cc(OC)cc(C(=O)N[C@H](C(=O)N2CCc3ccccc32)C(C)C)c1 | 0.3 | x | x | 2.8 | 0.641 | 14.0% | 4.7
CN(C(=O)c1ccc(NC(=O)Cc2ccccc2)cc1)c1ccccc1 | 1.8 | i | -6.7 | 4.1 | 0.728 | x | 6.1
CSCC[C@H](NC(=O)c1cccnc1)c1nnc2ccccn12 | -2.7 | i | 0.1 | -0.7 | 0.689 | 2.2% | -0.1
CCN1CCN(Cc2ccc(NC(=O)c3cc(NC(=O)c4cncc(-c5ccc(C#N)cc5)c4)cc(OC)c3)cc2C(F)(F)F)CC1 | 44.8*! | i | 4.6 | 2.4 | x | -10.8%&0.6% | 2.1
CCC1(C)Cc2c(sc3nc(SCC(=O)O)[nH]c(=O)c23)CO1 (stereo unspecified) | -6.7 | x | x | -0.1 | 0.68 | 4.7% | -1.1
O=C(/C=C/c1ccccc1)c1ccc2c3c(cccc13)CC2 | -1.2 | x | x | 0.1 | 0.709 | x | -3.4
OCCN(CCO)Cc1ccc(Br)cc1 | -2.0 | i | -1.3 | x | x | 2.7% | -4.5
CCn1c(=O)cc(OCC(=O)Nc2ccc3c(c2)OCCO3)c2ccccc21 | 1.1 | x | x | 4.5 | 0.671 | -6.3% | -1.1
O=C(Cc1ccc(Cl)cc1)c1c[nH]c(C(=O)NCc2cccnc2)c1 | -2.3 | i | 0.9 | 0.1 | 0.715 | -3.2% | -2.5
Cc1cccc(NC(=O)CNC(=O)Cn2cc(C(F)(F)F)cc(Cl)c2=O)c1C | 1.6 | i | -5.7 | -0.1 | 0.704 | 0.3% | x
CCOc1ccc(-n2nc3c(SCCN4CCCC4)nnc(C)c3c2C)cc1 | 6.6 | i | 5.5 | 3.1 | 0.708 | x | -22.6
CCCCNC(=O)C12CCC(C)(C(=O)C1Br)C2(C)C (stereo unspecified) | 2.3 | x | x | 4.2 | 0.697 | 15.2% | -3.0
Cc1cc(C(F)(F)F)nn1C(=O)c1cccnc1Cl | 2.0 | x | x | 3.3 | 0.747 | -3.4% | -3.1
Cc1ccc(C(=O)N(C)CC(=O)Nc2ccc(F)c(F)c2F)o1 | 1.5 | i | -0.4 | 1.4 | 0.671 | -1.5% | x
C(=N\n1cnnc1)/c1ccccn1 | 0.9 | x | x | x | x | 2.3% | -3.9
CCOc1ccccc1NC(=O)NNS(=O)(=O)c1cc(OC)ccc1OC | -0.1 | i | -0.3 | 4.8 | 0.712 | -4.6% | 3.1
O=C(CN1C(=O)C2CCCCN2C(=O)c2ccccc21)Nc1ccc(F)cc1 (stereo unspecified) | -0.2 | i | -0.8 | 2.1 | 0.708 | 5.5% | -2.6

A second format for part of the listing above.
smiles: C(=N\n1cnnc1)/c1ccccn1
- HNF4A DNA FP = 0.9
- FGF22 binding = x
- MLL AF4-AF9 inh = x
- UCH37 inh = x
- Ecoli growth = x
- Vif A3G = 2.3%
- RanGTP-Imp inh = -3.9
smiles: CCOc1ccccc1NC(=O)NNS(=O)(=O)c1cc(OC)ccc1OC
- HNF4A DNA FP = -0.1
- FGF22 binding = i
- MLL AF4-AF9 inh = -0.3
- UCH37 inh = 4.8
- Ecoli growth = 0.712
- Vif A3G = -4.6%
- RanGTP-Imp inh = 3.1

The list goes on.
SMILES | HNF4A DNA FP | FGF22 binding | MLL AF4-AF9 inh | UCH37 inh | Ecoli growth | Vif A3G | RanGTP-Imp inh
COc1ccc(-n2c(C)csc2=S)cc1 | -4.2 | x | x | 4.1 | 0.686 | -2.1% | 1.3
CCCNC(=O)Nc1nnc(C2CC2)s1 | 0.9 | i | -2.4 | -2.0 | 0.683 | -2.1% | 1.3
COc1ccccc1CNC(=O)C(NC(=O)c1ccc(C)cc1)C(C)C (stereo unspecified) | -6.5 | i | -0.1 | 0.1 | 0.684 | x | -0.2
CCCc1c(C(=O)N/N=C/c2ccncc2)nnn1-c1nonc1N | 5.2 | i | -2.1 | x | x | -3.7% | 1.2
O=C(COC(=O)CC1Sc2ccccc2NC1=O)NCc1ccccc1 (stereo unspecified) | -3.3 | i | 8.2 | 4.1 | 0.663 | 2.0% | u
COc1cc(CNc2ncnc3c2ncn3[C@H]2CN(Cc3ccncc3)C[C@@H](CO)O2)cc(OC)c1OC | -1.8 | i | -0.4 | x | x | x | x
COc1ccccc1CNS(=O)(=O)c1cc(C(=O)NCC2CCCO2)c(Cl)cc1Cl (stereo unspecified) | -0.5 | x | 1.9 | -1.3 | 0.672 | -5.8% | x
COc1ccccc1N(Cc1ccccc1)S(=O)(=O)c1cccc(C(=O)Nc2ccc(C(C)=O)cc2)c1 | 1.7 | x | x | -15.1 | 0.733 | 4.3% | 1.6
Cc1nn(CC(=O)NCc2cccc(F)c2)c(=O)c2cccn12 | -2.3 | i | -6.8 | -0.7 | 0.688 | -2.7% | 3.1
CSc1ccccc1NC(=O)c1csc(C)c1 | 4.1 | i | -5.0 | 1.5 | 0.667 | x | -4.6
O=C(O)/C(=C\c1ccco1)NC(=O)c1cccc2ccccc12 | -11.2 | i | -2.0 | 4.2 | 0.732 | u | -5.7
CC1C(=O)N(Cc2cn(CCC3OCCO3)nn2)CCS(=O)(=O)N1Cc1ccc(-c2ccc(F)cc2)cc1 (stereo unspecified) | 0.1 | x | 0.1 | x | x | 8.0% | x
COc1cc(C(C)=O)ccc1OCC(=O)Nc1ccc(S(=O)(=O)N2CCCCC2)cc1 | -1.1 | i | 2.9 | x | x | -1.8% | x
C=CCSC1=NC(=O)/C(=C/c2cccs2)S1 | 1.0 | x | x | 7.8 | 0.638 | -3.9% | x
CCOC(=O)CCc1c(C)c2ccc(OCc3ccc([N+](=O)[O-])cc3)cc2oc1=O | -3.0 | x | x | 4.6 | 0.729 | 13.9% | 1.5
CCN1CCN(c2ncnc3c2sc(=S)n3-c2ccccc2)CC1 | 1.0 | i | -0.7 | 16.1 | 0.733 | -1.3% | 2.4
O=C(CCC(=O)N1CCCC1)N1CCCC1 | 1.9 | i | -0.2 | -0.4 | 0.694 | x | -0.4
CS(=O)(=O)NNC(=O)c1sccc1OCc1ncc(C(F)(F)F)cc1Cl | 1.8 | i | -2.5 | 0.4 | 0.673 | -1.7% | 4.9
COCc1nc2oc3ccccc3c(=O)c2cc1C(=O)OC | -1.4 | i | -0.8 | 2.0 | 0.658 | 2.2% | -3.6
COc1cc(-n2cnnn2)ccc1S(=O)(=O)N1CCOCC1 | 8.9 | x | x | -0.2 | 0.694 | 82.0% | 0.9
Cc1cc(C)nc(NS(=O)(=O)c2ccc(NC(=O)C3(c4ccccc4)CCCC3)cc2)n1 | -0.3 | x | x | 5.2 | 0.721 | 4.9% | u
COCCN(C(=O)COC(=O)c1c(-c2ccccc2)noc1C)c1c(N)n(Cc2ccccc2)c(=O)[nH]c1=O | 0.7 | i | 2.3 | 4.4 | 0.697 | -5.7% | 0.1
CCN(CC(=O)Nc1c(F)cccc1F)C(=O)c1cc(S(=O)(=O)NCc2ccccc2)ccc1C | -3.3 | i | -0.9 | 4.3 | 0.652 | 1.0% | 4.5
O=C1C(Cc2ccccc2)NC(=S)N1Cc1ccccc1 (stereo unspecified) | -3.5 | i | 0.4 | 5.3 | 0.675 | 0.3% | 1.8
CC(C)c1nc2cc(Cl)ccc2n(Cc2ccccc2)c1=O | 1.2 | i | -0.5 | 0.5 | 0.653 | x | 0.4
More results.
SMILES | HNF4A DNA FP | FGF22 binding | MLL AF4-AF9 inh | UCH37 inh | Ecoli growth | Vif A3G | RanGTP-Imp inh
CCOC(=O)N1CCN(C2=C(NS(=O)(=O)c3ccc(NC(C)=O)cc3)C(=O)c3ccccc3C2=O)CC1 | -0.2 | i | 21.4 | 29.6* | 0.662 | 3.0% | -6.9
COc1cccc(NC(=O)c2ccc(CN3CCN(c4ccccc4)CC3)cc2)c1 | 0.7 | x | x | 2.8 | 0.665 | u | 1.8
C=CCN(c1ccc(C(=O)OC)cc1)S(=O)(=O)c1ccccc1 | 3.2 | i | -1.2 | -2.0 | 0.713 | -4.0% | 2.0
CCN(CC)c1cc(Oc2ccccc2)ncn1 | 0.5 | x | x | 0.6 | 0.752 | 13.9% | -2.9
CC(=O)c1c(C)[nH]c(C(=O)OCC(=O)Nc2ccccc2Cl)c1C | 4.3 | i | -2.7 | 0.7 | 0.649 | -7.3% | 0.8
COc1ccc(NC(=O)O/N=C/c2c(C)nn(C(C)(C)C)c2C)cc1 | 2.2 | i | 0.1 | x | x | 4.9% | 3.4
CCCCCCN(C(=O)CCCCCN1C(=O)NC(c2ccc(-c3ccccc3)cc2)C(C(=O)OCc2ccccc2)=C1C)C(C(=O)NCCCC)C1CCCCC1 (stereo unspecified) | x | i | -7.4 | 2.5 | x | 6.0% | -1.1
Cc1ccc(N(CC(=O)NCCSc2ccccn2)S(=O)(=O)c2ccc(F)cc2)cc1 | 3.5 | i | -2.5 | 3.8 | 0.731 | 5.7% | -1.9
Cc1nn(Cc2ccc(C(=O)NC(C)(C)C)o2)c(C)c1Br | 0.7 | x | x | -0.7 | 0.665 | u | 1.1
Cc1[nH]c(C)c(S(=O)(=O)Nc2ccc(OC(F)(F)F)cc2)c1C(=O)N1CCCCC1 | 1.4 | i | 0.3 | 1.8 | 0.683 | x | 8.6
Cc1ccc(S(=O)(=O)N2CCN(C(=O)COC(=O)C3CCC3)CC2)cc1 | -2.5 | i | 1.1 | 1.4 | 0.682 | 3.4% | 5.5
CC(C)Oc1ccc(C2C(C(=O)c3ccco3)=C(O)C(=O)N2Cc2cccnc2)cc1 (stereo unspecified) | 0.1 | x | x | 9.5 | 0.69 | 3.5% | 1.7
CCOC(=O)N1CCC(NCCNC(=O)c2ccccc2Cl)CC1 | -0.6 | x | x | 1.3 | 0.714 | -7.0% | -3.2
CO[C@H]1CN(C)C(=O)c2cc(NC(=O)C3CCOCC3)ccc2OC[C@H](C)N(Cc2nccs2)C[C@H]1C | 2.2 | i | -1.8&0.3 | x | x | x | x
Cc1ccc2c(c1)C(C)(C)[C@]1(C)NC(=O)CCN21 | 0.8 | x | -1.6 | -1.7 | 0.749 | -0.8% | -12.1
Brc1ccc2cccnc2c1 | 0.0 | x | x | 4.2 | 0.73 | 2.3% | 0.9
O=C(N/N=C\c1c(F)c(F)c(F)c(F)c1F)c1ccc(-c2ccccc2)cc1 | -0.2 | i | -0.3 | x | x | x | 6.0
Cc1ccc(S(=O)(=O)N2CCN(C(=O)COC(=O)/C=C/c3ccccc3F)CC2)c(C)c1 | -2.5 | i | 1.6 | 3.5 | 0.648 | -5.5% | x
Cn1nc(C(=O)Nc2cccc(S(=O)(=O)N3CCCCC3)c2)c2ccccc2c1=O | 0.2 | i | 2.2 | 4.0 | 0.713 | -4.1% | x
